# D2 ag: human D2 receptor agonism in beta-arrestin assay; P14416; DiscoveRx PathHunter D2 beta-arrestin, luminescence, 90 min; 100% = 57 uM dopamine signal; activation, % (test concentration not listed); 0.084% of 360,000 active; AID 624465; in the data active = activation above about 40%; inconclusive = about 15% to 40%; inactive = below about 15%; note: compound concentration not given in the record; the text of the record calls up to 30% inactive
#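 Agonist mode: compounds alone added to overnight-plated D2 PathHunter cells for 90 min at 37 C, with 57 uM final dopamine (EC100) defining full response. Beta-arrestin recruitment detected by chemiluminescent reagent, read after 1 h at ambient temperature.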
# TRPML1 agonist: agonists of human TRPML1 channel | Q9GZU1 | TRPML1-expressing cells, Ca2+ dye fluorescence, FDSS; host cell line not named in the record; reference of the full effect not given here | activation, % (test concentration not listed) | 0.12% of 410,000 active | AID 624414; in the data active = activation above about 50%; inconclusive = about 30% to 50%; inactive = below about 30%; note: 0% is about no effect; the text of the record puts the active cut at 80%
#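 Tet-induced TRPML1-DL cells, 1,500 per well, cultured overnight, were loaded with a no-wash Ca2+ dye for 45–90 min. Calcium fluorescence was recorded on the FDSS for 110 s after compound addition, before the EC80 agonist (4 uM 54-4) was added.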
# Six1-Eya2 inh: Six1/Eya2 interaction inhibition | Q15475+O00167 | AlphaScreen GST-Six1/His-Eya2 binding, biochemical; hits give low values; control for the full effect not named in the record | activity change, % (test concentration not listed) | 0.56% of 360,000 active | AID 651725; in the data active = activity change below about -65%; inconclusive = about -30% to -65%; inactive = above about -30%; note: % is set by controls: 0 for no effect and ±100 for the full control effect; compound concentration not given in the record
# Target sequence (O00167 whole entry, looked up): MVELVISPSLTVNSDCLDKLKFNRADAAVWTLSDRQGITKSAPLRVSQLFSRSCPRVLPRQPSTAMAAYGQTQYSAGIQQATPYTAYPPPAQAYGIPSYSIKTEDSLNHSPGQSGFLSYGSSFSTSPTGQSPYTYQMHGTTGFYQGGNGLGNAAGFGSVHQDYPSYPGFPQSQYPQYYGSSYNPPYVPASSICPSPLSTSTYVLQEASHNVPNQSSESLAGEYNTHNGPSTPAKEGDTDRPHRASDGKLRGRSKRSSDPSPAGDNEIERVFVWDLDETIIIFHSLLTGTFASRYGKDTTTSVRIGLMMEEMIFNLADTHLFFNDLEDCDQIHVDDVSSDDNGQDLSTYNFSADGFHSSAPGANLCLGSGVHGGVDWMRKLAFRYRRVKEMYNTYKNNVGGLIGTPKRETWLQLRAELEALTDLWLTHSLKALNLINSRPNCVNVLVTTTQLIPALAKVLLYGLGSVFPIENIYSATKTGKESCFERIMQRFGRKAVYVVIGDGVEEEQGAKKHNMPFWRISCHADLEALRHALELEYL
# Target sequence (Q15475 whole entry, looked up): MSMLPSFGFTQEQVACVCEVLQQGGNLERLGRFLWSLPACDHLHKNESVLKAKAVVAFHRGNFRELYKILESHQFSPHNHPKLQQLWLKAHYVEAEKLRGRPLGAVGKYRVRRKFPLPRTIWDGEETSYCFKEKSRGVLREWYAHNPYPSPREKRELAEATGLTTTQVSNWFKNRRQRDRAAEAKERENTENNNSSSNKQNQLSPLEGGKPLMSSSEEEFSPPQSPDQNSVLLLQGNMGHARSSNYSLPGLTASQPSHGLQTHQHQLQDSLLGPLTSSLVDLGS
#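 AlphaScreen with GST-Six1 and His-Eya2 (5X mix: 250 nM and 500 nM), glutathione donor and nickel acceptor beads; buffer 50 mM Tris pH 8.0, 300 mM NaCl, 1 mM TCEP; 1 h at 37 C in the dark.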
# D2 PAM: human D2 receptor positive allosteric modulation | P14416 | DiscoveRx D2 beta-arrestin cells, luminescence, 90 min; 100% = 57 uM dopamine signal | potentiation, % (concentration not given with the values) | 0.23% of 360,000 active; active = potentiation of 50% or more; inconclusive = 30% to 50%; inactive = 30% or less;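 note: compound concentration not given in the record; tested on top of an EC20 dose of dopamine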
#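 PathHunter D2 cells, attached overnight at 37 deg C, received compound in DMSO plus dopamine at EC20 (50 nM final) for 90 min at 37 deg C. Beta-arrestin recruitment was read as luminescence after 1 h with detection reagent at ambient temperature.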
# TRPML1 blocker: blocks the human TRPML1 channel; Q9GZU1; TRPML1-inducible cells, Ca2+ dye fluorescence, FDSS; hits give low values; inhibition of EC80 agonist-evoked calcium signal; activity change, negative = inhibition, % (concentration not given with the values); 0.02% of 390,000 active; AID 624415; in the data active means activity change below about -50%; inconclusive means about -30% to -50%; inactive means above about -30%;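 note: stimulus is agonist 54-4 at its EC80 concentration; % is set by controls: 0 for no effect and ±100 for the full control effect; compound concentration not given in the record; the text of the record puts the active cut at -80%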
#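 Tet-induced TRPML1-DL cells loaded with Ca8 no-wash calcium dye were read kinetically on FDSS. Compound addition was followed by EC80 agonist 54-4 (4 uM final); inhibition was read over 110 s.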
# PINK1 modulator: changes PINK1 expression. PINK1 immunofluorescence, high-content cytometry, 24 h. Potency, µM (titrated, usually from 76.6 µM), inactives show at the highest dose activation (PINK1 increase), hits mostly activators. 0.2% of 410,000 active; active = well fitted activation curve with a large enough effect; inconclusive = small, poorly fitted or top-dose-only effect; inactive = flat fitted curve, though single readings scatter; cell line not stated here;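 note: potency is the fitted concentration of half-maximal effect; % of control where 0% means no effect; nearly all actives have a fitted effect of over 65% in size; a mitochondrial uncoupler was the plate control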
#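 Measures PINK1 amount and localization on or inside mitochondria by immunofluorescence. Stable cells get compounds at 5 concentrations for 24 hours before fixation and staining; CCCP controls included.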
# Active calls of the source: *; ? = inconclusive; · = not tested or not shown; [ ] = dose if it differs, or a comment.
SMILES,D2 ag,TRPML1 agonist,Six1-Eya2 inh,D2 PAM,TRPML1 blocker,PINK1 modulator
CC(C)COc1cccc(C(=O)Nc2cc(S(=O)(=O)N3CCOCC3)ccc2N2CCCC2)c1,-2.1,3.0,-19,0,-13,-1.3%
CC(=O)Nc1n[nH]c(-c2ccc(C)cc2)c1C,0.8,2.1,4,0,8,-1.9%
O=[N+]([O-])c1cccc(Cl)c1CSc1ccccn1,3.3,1.9,-4,5,0,2.3%
COc1cccc(CN(C)C(=O)c2ccc(NC(=O)CC3SC(N4CCCCC4)=NC3=O)cc2)c1OC (stereo unspecified),-3.3,1.3,2,-4,-4,2.5%
COc1ccc2cc(C(N)=O)c(=Nc3ccc(C)cc3)oc2c1,-4.4,-0.9,-1,-4,20,2.6%
Cc1cc(C)n2c(Br)c(CSc3nc4ccccc4s3)nc2n1,-2.4,1.1,-26,4,-1,0.7%
CCCCOC(=O)/C(C#N)=C/c1ccc(-c2cccc(C(F)(F)F)c2)o1,·,-0.5,·,·,-1,0.8%
O=C(c1cc(Br)ccc1Cl)N1CCCC1,-1.2,0.0,-2,-1,-7,-0.5%
Cc1ccc(CCNC(=O)c2cc3c(=O)oc4ccccc4c3s2)cc1,·,-0.2,·,·,-2,1.5%
COC(=O)C(O)(CC(=O)Nc1cc(Cl)ccc1Cl)C(F)(F)F (stereo unspecified),0.7,-0.1,10,2,10,1.5%
Cc1onc(-c2ccccc2)c1C(=O)N(CC(C)C)c1c(N)n(CC(C)C)c(=O)[nH]c1=O,-2.3,0.6,9,-4,0,2.4%
Cc1cccc(NC(=O)CN2C(=S)NC(C)(C)CC2C)c1 (stereo unspecified),-3.4,-0.7,-9,-7,-14,0.2%
NC(=O)CC(NC(=O)c1ccc(Br)cc1)c1ccc(N2CCCCCCC2)c([N+](=O)[O-])c1 (stereo unspecified),-4.4,0.2,-30,-16,2,5.7%
CC1CCCN(C/C=C/c2ccccc2[N+](=O)[O-])C1 (stereo unspecified),-0.1,0.7,1,-13,-14,3.2%[38.3 µM]
Cc1cn(CC(=O)NCc2ccc(N(C)C)cc2)c(=O)[nH]c1=O,-4.3,-0.7,-7,-6,-4,5.5%
Cc1ccc(NC(=O)CN(C)C(=O)CSc2nc(C)cs2)cc1,-3.7,-0.9,-3,-9,25,0.3%
COc1ccc(S(=O)(=O)N2CCN(C(=O)CCNC(=O)c3ccccc3Cl)CC2)cc1,-0.4,0.8,8,-8,-9,-1.7%
COc1cccc(OC)c1C(=O)Nc1c(C(=O)N2CCN(c3ccccn3)CC2)oc2ccccc12,-3.0,2.0,-12,-1,-3,1.8%
COc1ccc(C(=O)/C=C/C(=O)N(CC(=O)NC2CCCCC2)CC2CCCO2)c(O)c1 (stereo unspecified),-7.7,0.5,0,-20,35,-2.1%
COc1ccc(N2CC(C)Cn3c2nc2c3c(=O)n(Cc3ccccc3)c(=O)n2C)c(OC)c1 (stereo unspecified),6.8,-0.5,-18,6,-10,4.1%
Cc1ccc2sc(N(CCCN(C)C)C(=O)c3ccc(S(=O)(=O)N4CCOCC4)cc3)nc2c1C,-1.2,1.3,-8,-30,-3,1.7%
CSCCC(NS(=O)(=O)c1ccccc1F)C(=O)N1CCCCCCC1 (stereo unspecified),2.3,-0.9,-2,-7,3,1.8%
CC(C)(C)c1ccc(Cn2nnc3c(=O)[nH]c(C4CCCN(C(=O)Cc5cccs5)C4)nc32)cc1 (stereo unspecified),-3.1,1.8,-10,-5,-6,2.0%[38.3 µM]
Cc1cc(C)c(C#N)c(SCC(=O)NC(C)(C)C)n1,2.7,-1.1,1,0,-7,1.0%
O=C1C2C3C=CC(C4CC34)C2C(=O)N1CCc1ccccc1 (stereo unspecified),3.2,2.2,9,-2,10,0.5%
CCOC(=O)c1ccc(NC(=O)Nc2c(C)n(C)n(-c3ccccc3)c2=O)cc1,-0.3,0.2,-1,-12,20,4.6%
COc1ccc(OC)c(S(=O)(=O)N2CCCC2C(=O)N2CCc3ccccc3C2)c1 (stereo unspecified),1.8,-0.6,0,-1,14,1.3%
O=S(=O)(Nc1ccccc1N1CCCCC1)c1ccccc1,-1.5,2.4,-8,-7,28,1.2%
O=C(Nc1ccc(C(F)(F)F)cc1)c1cccnc1N1CCOCC1,-1.4,1.1,3,-3,0,3.3%[38.3 µM]
O=C(N/N=C/c1ccc(-c2cccc([N+](=O)[O-])c2)o1)c1ccccc1O,-6.1,1.4,-11,-5,-5,0.7%

# Gathered by group, the compounds so far containing two or more sulfur atoms
SMILES,D2 ag,TRPML1 agonist,Six1-Eya2 inh,D2 PAM,TRPML1 blocker,PINK1 modulator
Cc1cc(C)n2c(Br)c(CSc3nc4ccccc4s3)nc2n1,-2.4,1.1,-26,4,-1,0.7%
Cc1ccc(NC(=O)CN(C)C(=O)CSc2nc(C)cs2)cc1,-3.7,-0.9,-3,-9,25,0.3%
Cc1ccc2sc(N(CCCN(C)C)C(=O)c3ccc(S(=O)(=O)N4CCOCC4)cc3)nc2c1C,-1.2,1.3,-8,-30,-3,1.7%
CSCCC(NS(=O)(=O)c1ccccc1F)C(=O)N1CCCCCCC1 (stereo unspecified),2.3,-0.9,-2,-7,3,1.8%

# Continued:
SMILES,D2 ag,TRPML1 agonist,Six1-Eya2 inh,D2 PAM,TRPML1 blocker,PINK1 modulator
COc1ccc(S(=O)(=O)N/N=C(/C)c2ccncc2)c(OC)c1,1.7,0.0,-4,-14,4,-1.1%
Cc1ccc(S(=O)(=O)N(C)C)cc1NC(=O)c1cccs1,-6.2,-1.0,10,-26,2,1.0%
CC(C)Oc1ccc(CN2CCC2(C)C(=O)NCc2ccc(C(F)(F)F)cc2)cc1 (stereo unspecified),-5.8,-0.9,0,-4,·,18%
COc1ccc(C(=O)COC(=O)c2ccn(C)n2)cc1,-2.6,-0.4,6,-8,41,-0.3%
Cn1c(=O)c2c(nc(/C=C/c3cccc(Cl)c3)n2C)n(C)c1=O,-5.6,-0.6,-12,8,-2,2.3%
CCOc1ccc(N2C(=O)C3ON(c4ccccc4)C(c4ccco4)C3C2=O)cc1 (stereo unspecified),-13,-0.2,10,1,-10,-0.7%
CCCCn1c(N)c(N(CC(C)C)C(=O)C2CC(=O)N(CCc3ccccc3)C2)c(=O)[nH]c1=O (stereo unspecified),-5.4,-0.7,2,-15,9,1.2%
CC(C)Oc1ccc(C(=O)OCC(=O)N2CCCc3ccccc32)cc1,-1.4,0.3,-1,-2,49,0.7%
Cc1onc(C(=O)N2CCN(c3ccccc3)CC2)c1[N+](=O)[O-],0.7,0.0,-3,-6,2,-0.4%
CCN(CC)S(=O)(=O)c1ccc(Cl)c(C(=O)NCc2ccccc2Cl)c1,-4.5,0.4,2,0,3,2.8%
Cc1sc(N2CCN(S(=O)(=O)c3ccc4c(c3)NC(=O)CO4)CC2)nc1-c1ccccc1,-4.4,0.1,-12,-8,-4,6.6%
CCN(CC)C(=S)NC(=O)c1cc(OC)c(OC)c(OC)c1,-1.0,1.1,-3,-9,8,-0.8%
CCN(CC)C(=O)Oc1ccc(Cl)c2ccccc12,-1.7,1.8,12,-8,-3,·
COc1ccc(C(=O)OCC(=O)c2ccc(S(=O)(=O)N3CCCCC3)cc2)c(OC)c1,-3.5,1.9,8,-14,1,-1.5%
CCOc1ncccc1C(=O)OCC(=O)Nc1nnc(-c2ccccc2)o1,-4.0,0.4,?,-4,-6,1.1%
CCc1cccc(CC)c1NC(=O)COC(=O)C1(C)CC1(Cl)Cl (stereo unspecified),2.7,1.4,7,-6,20,1.3%
COc1ccc(S(=O)(=O)NCCCO)cc1-c1nnc2c3ccccc3c(C)nn12,·,0.6,·,·,6,-0.7%
CCc1ccc(NC(=O)C(C)OC(=O)Cn2[nH]c(=O)c3ccccc3c2=O)cc1 (stereo unspecified),-1.5,-0.2,3,-12,2,4.8%
C=COc1ccc(N2C(=O)c3ccccc3OC2C)cc1 (stereo unspecified),-2.0,0.9,-4,-5,8,3.2%
COc1ccc(NC(=O)CSc2oc(-c3ccco3)nc2S(=O)(=O)c2ccc(Br)cc2)c(OC)c1,·,-0.2,·,·,8,-0.8%
O=C(CCCCCN1C(=O)CCC1=O)NCc1ccccc1,3.6,-0.3,2,-8,3,-3.2%
Cc1cccc2c1nc(-c1ccccc1)n1nnnc21,-4.4,0.9,6,-15,27,?
O=S(=O)(/N=C(\c1ccc(F)cc1)N1CCOCC1)c1ccccc1,-0.9,0.0,3,-9,3,-0.6%
CCc1nc2ccc(C(=O)NCCCN3CCCC3=O)cn2c1N(C=O)CC,-4.3,0.1,0,-4,·,0.6%
CC12CCC(C(=O)NC3CCCC3)(CC1=O)C2(C)C (stereo unspecified),-2.5,0.3,4,-10,48,-2.9%[38.3 µM]
O=C(CCS(=O)(=O)c1ccccc1)Nc1cccc(-c2nc3ccccc3s2)c1,3.3,-0.5,-15,1,1,1.0%
Nc1nc2cc3ccccc3cc2[nH]c1=O,1.7,-0.7,?,-5,-5,-1.8%
COC(=O)c1ccc(CSc2nnc3ccc4ccccc4n23)cc1,·,1.7,·,·,9,1.7%
CCCn1c(CN2CCN(c3ccc(OC)cc3)CC2)nc2c1c(=O)[nH]c(=O)n2C,·,-0.7,·,·,12,0.8%
Cc1nc(C)c(C(=O)C2=C(O)C(=O)N(CCN(C)C)C2c2ccccc2)s1 (stereo unspecified),-0.1,-1.0,15,2,-22,-0.7%
O=C(NC1CCCCCCC1)C1=COCCO1,-2.1,4.9,1,5,16,-0.3%
COc1ccc(N2CCN(CCNC(=O)CCN3C(=O)COc4ccccc43)CC2)cc1,-2.9,-0.1,-2,-5,-6,·
COc1ccc(CNC(=O)C2CCCN(S(=O)(=O)c3ccc(Br)s3)C2)cc1 (stereo unspecified),-0.6,0.8,-5,-7,15,12%
CCOc1ccc(S(=O)(=O)N2CCN(C(=S)NC3CC3)CC2)cc1,-3.7,-1.2,-6,-22,-3,3.4%
Cc1csc(SCC(=O)NC(=O)NCc2ccccc2)n1,-3.4,0.7,5,-5,1,1.3%
CC1CC(OCC(O)C[N+]2(C)CCOCC2)CC(C)(C)C1 (stereo unspecified),0.7,4.6,9,0,4,-0.8%

# 4 entries from above, reformatted:
Structure: COc1ccc(N2CCN(CCNC(=O)CCN3C(=O)COc4ccccc43)CC2)cc1
- D2 ag: -2.9
- TRPML1 agonist: -0.1
- Six1-Eya2 inh: -2
- D2 PAM: -5
- TRPML1 blocker: -6
- PINK1 modulator: ·
Structure: COc1ccc(CNC(=O)C2CCCN(S(=O)(=O)c3ccc(Br)s3)C2)cc1 (stereo unspecified)
- D2 ag: -0.6
- TRPML1 agonist: 0.8
- Six1-Eya2 inh: -5
- D2 PAM: -7
- TRPML1 blocker: 15
- PINK1 modulator: 12%
Structure: CCOc1ccc(S(=O)(=O)N2CCN(C(=S)NC3CC3)CC2)cc1
- D2 ag: -3.7
- TRPML1 agonist: -1.2
- Six1-Eya2 inh: -6
- D2 PAM: -22
- TRPML1 blocker: -3
- PINK1 modulator: 3.4%
Structure: Cc1csc(SCC(=O)NC(=O)NCc2ccccc2)n1
- D2 ag: -3.4
- TRPML1 agonist: 0.7
- Six1-Eya2 inh: 5
- D2 PAM: -5
- TRPML1 blocker: 1
- PINK1 modulator: 1.3%

# Source: PubChem
